Screens: PubChem BioAssay, ICCB-Longwood Screening Facility, Harvard Medical School
AID504770: growth inhibition of E. coli YBA685, primary screen, V. cholerae RctB inhibitors. E. coli YBA685 rctB-dependent plasmid, OD600 growth, 3 h; stronger effect = lower value. z-score (no concentration beside the values). 130,000 tested, 0.27% active;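 active = z-score under -2 on both plates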;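 also: wells of about 30 µL received 100 nL stock; score is relative to mean and SD of the test wells; the first replicate is given; strong numbers were not always called active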
CapD inh: Bacillus anthracis CapD inhibitors, primary screen, biochemical, fluorescence intensity. CapD gamma-glutamyltranspeptidase (Bacillus anthracis Ames Ancestor). purified CapD enzyme, fluorescence intensity read-out; stronger effect = lower value; some hits fall short of the stated cut. z-score (test concentration not listed). 140,000 tested, 0.23% active. AID 492967, 2010;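 active = z-score under -4 in either of two replicates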;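 also: stock transfer was 100 nL into about 40 µL; score is relative to mean and spread of the plate; one replicate is shown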
* hit, by the source's call; . = not tested or not shown; & = joins results of further samples.

SMILES | AID504770 | CapD inh
Cc1ccc(C(c2c(O)[nH]c(=O)[nH]c2=O)N2CCCC2)cc1 (stereo not given) | 1.35 | 0.185
FC(F)(F)c1ccc(-c2nc(-c3cc(-c4ccccc4)no3)cs2)cc1 | 2.15 | 10.6
Cc1c(F)cccc1/C=N/NC(=O)c1ccc(C(F)(F)F)cc1 | . | 0.225
Cc1nc(C(=O)NNC(=O)OCCc2ccccc2C)cs1 | . | -0.025
Cc1ccc(CNC(=O)CCN2N=C(c3ccccc3)CCC2=O)cc1 | -1.1 | 0.665
CCOC(=O)CSc1nnc(CSc2nc(N)c3c(C)c(C)sc3n2)n1-c1ccccc1 | 0.9 | 2.64
COCCNC(=O)c1cc2ncc(Br)cn2n1 | -0.05 | -0.245
Cc1ccc(N=Cc2c[nH]c3ccccc23)nc1 | -0.85 | 0.1
Cc1noc2ncnc(SCC(=O)Nc3cc(Cl)cc(Cl)c3)c12 | -1 | 10.8
Cc1ccc(NC(=O)CN2C(=O)/C(=C/c3ccccc3)SC2=S)cc1C | . | 0.09
O=C(NC(=S)c1c(-c2ccccc2)cc2ccccn12)c1ccccc1 | 0.85 | 6.42
COc1ccc(CCNS(=O)(=O)c2cc(F)c(Br)cc2F)cc1 | . | -0.09
CCC(=O)Nc1ccc(C(=O)CN2C(=O)NC3(CCCc4ccccc43)C2=O)cc1 (stereo not given) | 2.05 | .
COc1ccc(NC(=O)C2(N(Cc3ccccc3)C(=O)Cn3nnnc3N)CCCCC2)cc1 | 1.65 | -1.92
CSc1nc(C)[nH]c(=O)c1C#N | -1.05 | -1.1
CC(=O)Nc1c(-c2ccccc2)oc2ccccc2c1=O | -0.8 | 1.46
c1ccc(-c2nc(SCC3CCOCO3)oc2-c2ccccc2)cc1 (stereo not given) | -0.7 | .
N#Cc1ccc(NC(=O)COCC(=O)O)cc1 | -0.45 | -0.88
O=C(c1nn2c(C(F)(F)F)cc(-c3ccccc3)nc2c1Br)N1CCN2CCCC2C1 (stereo not given) | 1.8 | -0.155
CCC(=O)Oc1ccc(/C=N/NC(=O)COc2ccccc2Cl)cc1 | . | -1.03
Cc1csc(NC(=O)CCc2c(C)nc3c(c(C)nn3-c3ccccc3)c2C)n1 | 0.05 | 3.8
CCOC(=O)c1c(CNC(C)=O)n(CC(=O)OC)c2cc(Br)c(OC)cc12 | . | 0.125
O=c1[nH]c2cc3c(cc2cc1CN(Cc1nnnn1CCc1ccccc1)C1CCCC1)OCCO3 | 0.35 | .
CN1CCN(CC(=O)CCN2C(=O)/C(=C/c3ccccc3Cl)SC2=S)CC1 | -0.4 | -0.605
CCOc1ccc(C(=O)Nc2ccccc2-c2nc3ccccc3[nH]2)cc1 | . | 0.16

Reformatted with two lines to a compound: entries from further up
Values run as follows: AID504770 | CapD inh
> Cc1ccc(NC(=O)CN2C(=O)/C(=C/c3ccccc3)SC2=S)cc1C
    . | 0.09
> O=C(NC(=S)c1c(-c2ccccc2)cc2ccccn12)c1ccccc1
    0.85 | 6.42
> COc1ccc(CCNS(=O)(=O)c2cc(F)c(Br)cc2F)cc1
    . | -0.09
> CCC(=O)Nc1ccc(C(=O)CN2C(=O)NC3(CCCc4ccccc43)C2=O)cc1 (stereo not given)
    2.05 | .
> COc1ccc(NC(=O)C2(N(Cc3ccccc3)C(=O)Cn3nnnc3N)CCCCC2)cc1
    1.65 | -1.92

The list continues:
SMILES | AID504770 | CapD inh
Cc1ccc(Oc2ccc3c(c2)C(=O)N(c2cccc(O)c2)C3=O)cc1 | 1.4 | 0.38
COc1ccc(OC)c(C2NC(=O)NC(C)=C2C(=O)Nc2ccccc2Cl)c1 (stereo not given) | . | 0.085
COC(=O)c1ccc(C(c2cc3c(cc2O)OCO3)N2CCN(c3ccccc3)CC2)cc1 (stereo not given) | -0.5 | .
O=C(Cc1csc2nc3sc4c(c3c(=O)n12)CCC4)N(CCO)CCO | -0.35 | .
Cc1ccccc1C(=O)OCC(=O)c1sc2ccc(Cl)cc2c1C | 1 | 1.09
CC(C)c1ccc(NC(=O)CSc2n[nH]c(=O)n2Cc2ccco2)cc1 | -0.1 | -0.01
COc1ccc(C(=O)OC(C)CN2CCN(C)CC2)cc1 (stereo not given) | -0.75 | -0.435
CCOC(=O)c1sc2ccccc2c1N | . | 82
O=C1C(=O)N(CCCN2CCOCC2)C(c2ccccc2)/C1=C(\O)c1ccc(S(=O)(=O)N2CCOCC2)cc1 (stereo not given) | -0.1 | 0.58
CC1CCc2c(sc3ncnc(NC4CC4)c23)C1 (stereo not given) | -0.25 | .
Cc1nn(CCCC(=O)N(C)Cc2ccccc2)c(=O)c2cc3sccc3n12 | -0.2 | -0.91
Cc1ccccc1OCC1Cc2c(nc(-n3cccc3)c(C#N)c2-n2cccc2)O1 (stereo not given) | . | -0.32
CCOCC(=O)Nc1cccc(Br)c1 | -0.85 | -0.025
COC(=O)/C=C1/N/C(=N/c2nc3cc(C)ccc3o2)NC1=O | -0.3 | .
COc1ccc(S(=O)(=O)N2CCCc3cccc(O)c32)cc1 | -0.7 | -0.285
CCN1CCCC1CNC(=O)CCNC(=O)Cn1cnc2ccccc2c1=O (stereo not given) | . | 0.045
CCCSc1nnc(Nc2ccccc2OC)s1 | 1.1 | .
COC(=O)c1cccc(COC(=O)c2cccnc2SC)c1 | -0.8 | .
CC(Oc1ccccc1)C(=O)N1CCCCCC1 (stereo not given) | -0.35 | -0.06
O=C1c2ccccc2CN1CCNS(=O)(=O)c1ccc2oc3ccccc3c2c1 | 1.4 | -0.655
Cc1cc(-c2ccco2)c(C#N)c(SCC(=O)c2ccc(O)c(O)c2)n1 | . | -0.205
N#Cc1ccc(OCCO)cc1 | -0.05 | -0.805
CCc1ccc(NC(=O)C2CC(=O)Nc3ncnn32)cc1 (stereo not given) | -0.05 | -0.275
CN1C(=O)N(C)C(=O)C(C2CCC3OCC2O3)(C2CCC3OCC2O3)C1=O (stereo not given) | -1.25 | 0.005
COC(=O)c1ccc(/C=C2\SC(=O)N(Cc3ccc(Br)cc3)C2=O)cc1 | . | 2.27

Later entries.
SMILES | AID504770 | CapD inh
O=C(COc1c(Br)cc(Br)c2cccnc12)N1CCCCC1 | 0.25 | 1.75
C=CCc1c(C)nc(SC)nc1Nc1ccc(C)cc1 | -0.4 | 0.36
O=S1(=O)CC(O)C(NCCc2ccccc2)C1 (stereo not given) | -0.8 | -0.4
C=CCNC(=O)C1CCCN(S(C)(=O)=O)C1 (stereo not given) | 1.3 | -1.23
Cc1onc(-c2ccccc2Cl)c1C(=O)Nc1ccc(S(=O)(=O)Nc2nccs2)cc1 | . | -1.04
CC(=O)N1CCN(CC(O)COCc2ccccc2F)CC1 (stereo not given) | -0.7 | .
FC(F)(F)c1cccc(Oc2ccc3nnc(-c4ccccc4)n3n2)c1 | -0.25 | 1.67
CC(=O)Nc1ccc(S(=O)(=O)Nc2cc(C(=O)N(C)C3CCCCC3)ccc2N2CC3CC(C2)c2cccc(=O)n2C3)cc1 (stereo not given) | . | 0.155
c1ccc(-c2ccc3cccnc3n2)nc1 | . | -1.1
CC1=C(C(=O)Nc2ccc(C)cc2)C(c2ccc(Br)cc2)n2nnnc2N1 (stereo not given) | . | 0.155
Cc1ccc(NC(=O)Nc2ccc(C(F)(F)F)cc2)cc1NS(C)(=O)=O | -0.35 | 0.135
O=C1CCCCCN1Sc1c(-c2ccccc2)nc2sccn12 | -0.8 | -0.465
C=CCn1c(O)c(C=Nc2ccccc2)sc1=S | 2.45&1.7 | -2.69
O=C(Nc1ccc(C(F)(F)F)cc1)Nc1ccc(N2CCN(c3ncccc3C(F)(F)F)CC2)nc1 | 0.35 | 0.815
COc1ccc(C2SCCN2S(=O)(=O)c2ccc(Cl)cc2)cc1OC (stereo not given) | . | 13.2
c1ccc2c(c1)nnc1nncn12 | . | -1.7
CC(C)CC(C(=O)c1c(N)n(C)c(=O)n(C)c1=O)N1C(=O)c2ccccc2C1=O (stereo not given) | 1.3 | .
Cc1cc(C)n(C2CCS(=O)(=O)C2)n1 (stereo not given) | -0.85 | 0.305
CCC(C)N=Cc1c(O)[nH]c(=O)[nH]c1=O (stereo not given) | 0.7 | 7.74
Cc1cc(C(=O)OCC(=O)NCc2ccco2)c(C)o1 | -0.55 | .
CCOC(=O)CCCN1CCC2=C(C1)c1c(O)cc(C(C)CCCc3ccc(F)cc3)cc1OC2(C)C (stereo not given) | . | -0.725
CC(=O)Nc1ccc(S(=O)(=O)NCCn2ccc3ccccc32)cc1 | 0.4 | 0.12
Cc1cc(OCC(=O)NCc2ccc3c(c2)OCO3)ccc1Cl | 0.8 | 0.075
CC(C)N(C(=S)Nc1ccc(Oc2ccccc2)cc1)C(C)c1ccccn1 (stereo not given) | 0.15 | 36.2
O=C(O)CCC(=O)Nc1ccccc1C(=O)c1ccccc1 | 1.2 | -0.13

The results go on.
SMILES | AID504770 | CapD inh
CCCCS(=O)(=O)Nc1ccc(Cc2ccncc2)cc1 | 0.15 | 0.555
CC(=O)c1cn(-c2ccc(Cl)cc2)c(=O)n(Cc2ccc(F)cc2)c1=O | . | -0.57
CCOC(=O)c1c(NC(=S)NC2CCCCC2)sc2c1CC(C)(CC)OC2 (stereo not given) | . | -0.335
CCOC(=O)c1cc(-c2ccc(Br)s2)n[nH]c1=O | -0.15 | 0.02
O=C1NC2(CCCCC2)Nc2ccccc21 | 0.85 | 90
CC(C)c1ccc(Nc2c(-c3ccc(N(C)C)cc3)nc3nc[nH]n23)cc1 | 2 | -0.245
Cc1nc2ccccc2nc1Sc1nnc(-c2ccccc2)o1 | 0.7 | 1.29
NC(CO)C(=O)NNCc1ccc(O)c(O)c1O (stereo not given) | 0.4 | 0.07&-0.325
CC1=C(C(=O)OC2CCCC2)C(c2coc3ccccc3c2=O)C2=C(CC(c3cccs3)CC2=O)N1 (stereo not given) | . | 1.72
COc1ccc(-c2nc3ccc(Cl)cc3n2OCc2cc(C)cc(C)c2)cc1 | . | 0.265
CCN(C(=O)CSc1ncnc2ccccc12)C1CCCCC1 | 0.1 | 0.25
COc1ccc(CCNC(=O)C2CCCCC2)cc1OC | -0.4 | 0.725
O=C(Nc1cccc2ncccc12)c1cc2ccccc2o1 | -0.8 | -1.19
O=C(Cc1n[nH]c(=O)c2ccccc12)NCC(c1ccc(F)cc1)N1CCOCC1 (stereo not given) | -0.4 | .
COc1ccccc1NC(=O)CCn1c(=O)sc2ccccc21 | 0.45 | 0.415
COc1cc(C(=O)N2CCCCC2)cc(OC)c1OC | 0.75 | 0.37
O=C(CC(=O)c1cccnc1)c1cccnc1 | . | -0.26
CCOC(=O)/C(C#N)=C/Nc1nnc(SCC#N)s1 | 0 | 0.515
O=C(CSc1nc2c(sc(=S)n2Cc2ccco2)c(=O)n1-c1ccccc1)Nc1nccs1 | . | -0.185
CC(N=C1NS(=O)(=O)c2ccccc21)c1ccc(F)cc1 (stereo not given) | -0.3 | .
CC(C)(C)c1ccc(-c2nnnn2-c2ccccc2)cc1 | -0.25 | -0.18
CC(C)(CC(=O)O)CC(=O)N1CCN(c2ccc(C(F)(F)F)cc2)CC1 | . | -0.395
Fc1ccc(-c2csc(NC3=NCCC3)n2)cc1 | -0.25 | -0.405
CCN1CCOC(CC(=O)Nc2ccccc2C)C1=O (stereo not given) | 0.8 | -0.6
Cc1nc(N2CCOCC2)c2c(C)c(C(=O)N3CCN(Cc4ccc5c(c4)OCO5)CC3)sc2n1 | . | -0.19

Of the compounds above, 3 contain a COOH group.
SMILES | AID504770 | CapD inh
N#Cc1ccc(NC(=O)COCC(=O)O)cc1 | -0.45 | -0.88
O=C(O)CCC(=O)Nc1ccccc1C(=O)c1ccccc1 | 1.2 | -0.13
CC(C)(CC(=O)O)CC(=O)N1CCN(c2ccc(C(F)(F)F)cc2)CC1 | . | -0.395

Continuation:
SMILES | AID504770 | CapD inh
Cc1ccc(-c2ccc(CCC(=O)O)o2)cc1 | 1.5 | 76.6
CCC(=O)c1c[nH]c2ccccc12 | 0.65&-2.1 | -0.275&-0.195
CCc1ccc(NC(=O)N(Cc2cccnc2)Cc2ccco2)cc1 | 0.1 | 1.58
Nc1nnc(SCC(=O)N2CCN(c3ccccc3)CC2)s1 | 0.05 | .
N#CCc1c[nH]c2c(F)c(F)c(F)c(F)c12 | . | -0.405
Cc1sc(Cc2ccc(Cl)cc2)nc1O | -0.65 | -0.26
CNC(=S)NNC(=O)c1ccncc1 | . | -0.79
CC(C)NC(=O)C1CCCN(C(=O)N2CCOc3ccccc32)C1 (stereo not given) | 0.2 | -0.275
O=S(=O)(c1ccc(O)cc1)c1ccc(O)cc1 | -1.15 | 10
O=C(O)CCCCC1SCC2NC(=O)NC21 (stereo not given) | 2.1 | -0.645
Cc1nnc2n1NC(c1ccc(Cl)cc1)=CS2 | -1.3 | .
O=S(=O)(c1cc(F)c(Br)cc1F)N1CCN(c2ccc(C(F)(F)F)cn2)CC1 | . | 0.125
COc1ccccc1NC(=O)COC(=O)C12CC3CC(CC(C3)C1)C2 | -1.05 | -0.455
COc1cccc(CNCc2ccccc2OC)c1 | 1.8 | 0.05
CCn1c(=O)c2cc(C(=O)N(C)c3cccc(C(F)(F)F)c3)sc2c2ccccc21 | 1.4 | -0.715
Cc1csc2nc(O)c(C(=O)NCC(C)O)c(=O)n12 (stereo not given) | -0.85 | .
CCN(CC)C(=O)CSc1ccc2c(c1)OCCO2 | -0.7 | .
COc1ccc(NC(=O)C(c2ccc(OC)cc2)N(C)C(=O)c2cnccn2)cc1 (stereo not given) | -1.15 | 0.165

As a short view, part of the list above:
SMILES | AID504770 | CapD inh
CCc1ccc(NC(=O)N(Cc2cccnc2)Cc2ccco2)cc1 | 0.1 | 1.58
Nc1nnc(SCC(=O)N2CCN(c3ccccc3)CC2)s1 | 0.05 | .
N#CCc1c[nH]c2c(F)c(F)c(F)c(F)c12 | . | -0.405
Cc1sc(Cc2ccc(Cl)cc2)nc1O | -0.65 | -0.26
CNC(=S)NNC(=O)c1ccncc1 | . | -0.79
CC(C)NC(=O)C1CCCN(C(=O)N2CCOc3ccccc32)C1 (stereo not given) | 0.2 | -0.275
